AID504770: E. coli YBA685 growth inhibition, screen for V. cholerae RctB inhibitors | E. coli YBA685 rctB-dependent plasmid, OD600 growth, 3 h; active compounds read low | z-score (concentration not given with the values) | actives 0.27% (n = 130,000) | AID 504770;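 active means z-score under -2 on both plates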;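 further: wells of about 30 µL received 100 nL stock; score is relative to mean and SD of the test wells; the first replicate is given; strong numbers were not always called active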
CapD inh: CapD enzyme inhibition. purified CapD enzyme, fluorescence intensity read-out; active compounds read low; some hits fall short of the stated cut. actives 0.23% (n = 140,000). z-score (no concentration beside the values);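 active means z-score under -4 in either of two replicates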;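 further: stock transfer was 100 nL into about 40 µL; score is relative to mean and spread of the plate; one replicate is shown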
The depositor's hits bear a star; / = no result given; & = joins results of further samples.

SMILES	AID504770	CapD inh
COC(=O)C1=C(C)N(c2ccccc2)/C(=C/c2cccc3ccccc23)C1=O	0.3	-1.5
Cc1ccc2c(c1)C1CN(C)CCC1N2C(=O)CCCN1C(=O)c2ccccc2C1=O (stereo not given)	/	-0.17
N#Cc1c(N(C(=O)/C=C/c2ccco2)C(=O)/C=C/c2ccco2)oc(-c2ccco2)c1-c1ccco1	0.85	/
COc1ccccc1N1CCN(C(=O)c2cccc(Oc3ccccc3)c2)CC1	0.2	-0.84
Cc1ccc(C)c(NC(=O)CSc2nnc3cc(C)c4ccccc4n23)c1	/	10
CCc1ccc(NC(=O)c2ccc(F)c(S(=O)(=O)NCC3COc4ccccc4O3)c2)cc1 (stereo not given)	-0.05	0.48
COC(=O)c1cc(=O)n2c(-c3cccs3)nnc2s1	1.1	0.18
O=C(Nc1ccccc1)c1csc(-c2ccccc2)n1	-0.25	0.16
Cc1cccc(NC(=O)CSc2ncnc3c2oc2ccccc23)c1	-0.1	/
O=C(OC1c2ccccc2C(=O)N1Cc1ccccc1)c1cccc(Cl)c1 (stereo not given)	1.6	2.2
COc1ccc(C)cc1N(C)C(=O)c1coc(=O)c2ccccc12	-0.25	-0.9
COc1ccc(C(CNC(=O)c2oc3ccc(C)cc3c2C)N2CCCCC2)cc1 (stereo not given)	0.35	-0.68
N#Cc1c(-c2ccccc2)cc(-c2cccs2)nc1SCCS(=O)Cc1ccccc1 (stereo not given)	/	60
Cc1ccc2c(c1)C(c1ccccc1)=NNC(c1ccccc1)=N2	/	-0.3
CC1CCC(N2CC(=O)N(Cc3ccc4c(c3)OCO4)C(c3ccc(F)cc3)C2=O)CC1 (stereo not given)	0.1	-0.8
O=C1CCCC2=C1C(c1cccc(Br)c1)C1=C(CCCC1=O)O2	/	-0.65
CCN(Cc1ccc(Br)s1)C(=O)CSc1nnc(C2CC2)n1C1CC1	-0.65	/
O=C1C2C3c4ccccc4C(c4ccccc43)C2C(=O)N1CCCO (stereo not given)	/	-0.55
COc1ccc(OC)c(Cc2nc3cc(C)c(C)cc3[nH]c2=O)c1	/	0.92
CC(=O)Nc1ccc(NC(=O)c2ccc(N3C(=O)C4CC(C)=CC(C)C4C3=O)cc2)cc1 (stereo not given)	/	0.17
CCc1cc2c(N(CC)CC)nc(C)nc2s1	-1.1	/
COC(=O)c1ccc(CN2C(=O)NC(Cc3c[nH]c4ccccc34)C2=O)cc1 (stereo not given)	-1.5	/
N#CC(C#N)=C(N)/C(C#N)=C/c1ccco1	-0.05	/
CCc1ccccc1NC(=O)C(CC)n1nc(-c2ccc(OC)cc2)ccc1=O (stereo not given)	0.45	/
O=[N+]([O-])c1ccc(C2CCCC/C2=N/Nc2cccc(F)n2)c([N+](=O)[O-])c1 (stereo not given)	/	-0.18
COc1ccc(NC(=O)C(Cc2ccccc2)n2cccc2)cc1 (stereo not given)	0.2	-0.49
COc1ccc(C(=O)NCc2nnc(SCc3nc4ccccc4c(=O)[nH]3)n2C)cc1	0.15	0.53
c1ccc(-c2nc(N3CCCC3)nc3ccccc23)cc1	-0.25	0.59
CCN1C(=O)/C(=C2\SC(=Nc3cccc(Cl)c3C)NC2=O)c2ccccc21	-0.25	0.045
COC(=O)c1ccc2c(c1)N(CC#N)C(=O)CS2	0	-0.42
Cc1ccc2c(c1)-c1sc(C(=O)Oc3ccc(Cl)cc3)cc1CS2	/	-0.46
O=C(CSc1nc2ccccc2nc1Cc1cccc([N+](=O)[O-])c1)NCc1ccccc1	/	-0.15
COc1cccc(NC(=O)Cn2c(=O)n(CC(=O)NCCc3ccccc3)c(=O)c3ccccc32)c1	0.3	2.2
COc1cc(C=Nc2cc(C)ccc2C)cc(OC)c1OC	-0.75	0.045
CCOc1ccc(C(=O)Nc2sc3c(c2C(=O)NCc2cccnc2)CCCC3)cc1	-1	2.1
COc1ccc(-c2coc3ccccc3c2=O)cc1	-0.8	0.36
O=C(O)Cn1c(O)c(C=Nc2ccccc2)sc1=S	/	-7.4*
O=C1Oc2ccccc2C(=O)/C1=C/N1CCCCC1	-0.1	/
COCCN(C(=O)c1ccc(Cl)cc1Cl)C1CCN(C)CC1	/	-0.9
Cc1ccc2c(c1C)NC(C(=O)O)C1CC=CC21 (stereo not given)	-0.15	/

For reference, some entries already given.
SMILES	AID504770	CapD inh
COc1ccccc1N1CCN(C(=O)c2cccc(Oc3ccccc3)c2)CC1	0.2	-0.84
Cc1ccc(C)c(NC(=O)CSc2nnc3cc(C)c4ccccc4n23)c1	/	10

(list continues)
SMILES	AID504770	CapD inh
O=C(CN1C(=O)C2C3C=CC(C3)C2C1=O)N1CCc2ccccc2C1 (stereo not given)	-0.2	-1.7
Cc1cc(C(=O)NNc2ccc(C(C)C)cc2)n(C(C)(C)C)n1	0.55	0.75
CC1CC(C)CN(C(=O)Cn2cnc3c2c(=O)n(C)c(=O)n3C)C1 (stereo not given)	0.7	/
COc1ccc(-n2nc3c(c2NC(=O)COc2ccc(Cl)cc2Cl)CS(=O)(=O)C3)cc1	/	-0.035
CC1CCCC(NC(=O)COC(=O)c2n[nH]c3ccccc23)C1C (stereo not given)	-1.1	1.4
Cc1ccc(C=Nc2c(C)n(C)n(-c3ccccc3)c2=O)cc1	/	0.42
CC1CCN(c2cc(N(C)C)c3noc4c3c2C(=O)c2ccccc2-4)CC1	-0.1	-0.26
CC1=C(C#N)C(c2ccccc2)C2=C(CC(c3ccc(Br)cc3)CC2=O)O1 (stereo not given)	0.25	0.38
C=CCn1c(SCC(=O)Nc2c(C)n(C)n(-c3ccccc3)c2=O)nnc1-c1ccncc1	0.85	/
O=C1C(CCS(=O)c2ccccc2)C(=O)N(c2ccccc2)N1c1ccccc1 (stereo not given)	-0.1	0.11&-0.12
Cn1c(=O)c2c(ncn2Cc2nc(N)nc(N3CCOCC3)n2)n(C)c1=O	/	-0.56
Cc1cc(=O)[nH]c(-c2cccc(Cl)c2)n1	/	-1
Cc1ccc(/C(O)=C2\C(=O)C(=O)N(c3nnc(C)s3)C2c2ccccc2)cc1 (stereo not given)	/	-0.29
O=C(O)CCn1c(=O)n(CCC(=O)O)c2c(Cl)cc(Cl)cc21	-0.1	0.5
O=C(O)CCNc1ncnc2ccccc12	1.9	0.58
Cc1ccc(Cn2c(=O)c3ccccc3n3c(SCC4CCCO4)nnc23)cc1 (stereo not given)	-0.7	/
COCCNC(=O)Cn1cc(C=C2C(=O)N(C)C(=O)N(C)C2=O)c2ccccc21	0.55	0.46
CN(C)C(Cn1c(=S)[nH]c2ccccc2c1=O)c1ccccc1 (stereo not given)	-0.25	/
O=C(Oc1ccc(Cl)cc1)c1snnc1-c1ccccc1	-0.4	-0.46
CCN(C(=O)c1ccc(C(C)(C)C)cc1)c1ccc(Sc2nccc(C)n2)cc1	/	-0.41
Cc1cc(C)n2nc(N3C(=O)CCC3=O)nc2n1	-0.65	0.46
O=C(Nc1ccccc1)c1ccc(=O)n(Cc2ccc(C(F)(F)F)cc2)c1	/	0.025
CSc1nc(Oc2cc(Cl)c(Cl)cc2Cl)c2ccccc2n1	/	-0.02
C=C(C)CN(CC)S(=O)(=O)c1ccc2[nH]cc(C(=O)O)c(=O)c2c1	/	8.7
CCCC[N+]1(C)C2CCC1CC(O)C2 (stereo not given)	0.15	0.1
Cc1cc(C)nc(N2CCN(C(=O)CCC(=O)NC3CC3)CC2)n1	/	0.97
COc1cc2nc(NC(=O)c3ccccc3)[nH]c(=O)c2cc1OC	0.3	/
Cc1cccc(C(=O)NN(C)c2nc(-c3ccccc3)nnc2C(F)(F)F)c1	/	-0.18
NC(=S)Nc1ccccc1N1CCOCC1	/	0.55
CCC(=O)Nc1nc(-c2ccc(OC)cc2)cs1	1.9	/
c1ccc(CCCc2nc(-c3ccccn3)no2)cc1	0.8	0.33
Cc1nccn1C(=O)c1ccccc1C(=O)O	-0.95	/
Cc1ccc(-n2c(=O)c3c(n4c(SCC(N)=O)nnc24)-c2ccccc2CC32CCCCC2)cc1	/	-0.33
CCOC(=O)c1oc2ccccc2c1N=Cc1c(O)n(CC)c(=S)n(CC)c1=O	-0.2	/
CN=c1scc(-c2ccc(Br)s2)n1/N=C1\C(=O)Nc2ccccc21	0.65	/
CCC(=O)N1CCc2cc(Br)cc(S(=O)(=O)N(CC)CCN(C)C)c21	2.3	-0.22
O=C(/C=C/c1cccs1)NCCC1=CCCCC1	-1	-0.93
N#Cc1cccc(COc2ccc(Cl)cc2)c1	/	0.13
O=C(/C=C/c1ccc2c(c1)OCO2)N/N=C/c1cccc(Oc2ccc(Cl)cc2)c1	/	2.2
CCN(Cc1ccccc1)Cc1c(O)ccc2oc(C)c(C(=O)NC3CCCC3)c12	-0.5	-0.11

6 structures already listed, ordered by SMILES length, descending:
SMILES	AID504770	CapD inh
O=C(Nc1ccccc1)c1ccc(=O)n(Cc2ccc(C(F)(F)F)cc2)c1	/	0.025
Cc1cc(C)nc(N2CCN(C(=O)CCC(=O)NC3CC3)CC2)n1	/	0.97
CCC(=O)Nc1nc(-c2ccc(OC)cc2)cs1	1.9	/
O=C(/C=C/c1cccs1)NCCC1=CCCCC1	-1	-0.93
CCCC[N+]1(C)C2CCC1CC(O)C2 (stereo not given)	0.15	0.1
NC(=S)Nc1ccccc1N1CCOCC1	/	0.55

Single records, as listed above.
Record of COc1cc2nc(NC(=O)c3ccccc3)[nH]c(=O)c2cc1OC : AID504770: 0.3; CapD inh: /
Record of N#Cc1cccc(COc2ccc(Cl)cc2)c1 : AID504770: /; CapD inh: 0.13

(further entries)
SMILES	AID504770	CapD inh
CCOC(=O)NC(=O)c1cn(Cc2ccccn2)c(=O)[nH]c1=O	/	0.23
O=C(N/N=C/c1cccc2c1OCO2)c1ccco1	/	19
COc1cc(-c2nnc(COC(=O)C3(c4ccccc4)CC3)o2)cc(OC)c1OC	-0.4	/
Cc1cc(-n2nc(-c3cccc(C(F)(F)F)c3)cc2N)nc2c1c(C)nn2C	-0.05	-0.02
Cc1cc(NC(=O)CN2CCc3ccccc3C2)nc2c1c(=O)oc1ccccc12	0.75	1.9
Cc1onc(-c2c(Cl)cccc2Cl)c1/C(N)=N/OC(=O)N(C)C	-0.5	0.2
N#Cc1c(Cl)cccc1Oc1ccc(S(=O)(=O)NC2CCCCCC2)cc1	/	0.15
NC(=O)CN1C(=O)c2cccc3cccc1c23	-0.8	-0.33
CCC(C)n1c(=O)[nH][nH]c1=S (stereo not given)	-0.4	1.1
CCc1ccc(-c2nn(-c3ccccc3)cc2C#N)cc1	0.6	0.17
CCCCCn1c(SCC(=O)N(C)Cc2ccccc2)nc2cc(C(=O)N3CCC(C(N)=O)CC3)ccc2c1=O	/	0.33
O=C1c2ccccc2C(=O)N1CCCO	/	-0.51
CCN(C(=O)c1cn(-c2ccccc2)nc1-c1cccs1)c1ccccc1	-0.3	/
FC(F)(F)c1cc(-c2ccco2)nc(N2CCCC2)n1	-0.6	2.1
O=C1CC(c2ccccc2Cl)CC2=C1C(c1coc3ccccc3c1=O)Nc1ccccc1N2 (stereo not given)	/	-0.31
CC1CCCC(C)N1C(=O)c1cc(-c2ccc3c(c2)OCO3)on1 (stereo not given)	0.65	0.37
COc1ccc(CNC(=O)CN2N=C(c3ccc(Cl)cc3)CCC2=O)c(OC)c1	-0.9	0.37
Cc1cc(C)c(NC(N)=O)c(C)c1	/	0.17
Cc1cc(C)cc(N2C(=O)CSC2c2cccs2)c1 (stereo not given)	-0.2	-0.47
Cc1nc2ccccc2n1CC(=O)Nc1cccc(Br)c1	-0.1	-0.59
NC(=O)c1ccsc1NC(=O)C1=NN(c2ccccc2)C(=O)CC1	-0.2	/
N#Cc1c(Cl)cccc1-n1cccc1	-0.3	0.075
N#CC1=C(N)Oc2n[nH]c(-c3ccccc3)c2C12C(=O)Nc1ccccc12 (stereo not given)	-0.6	0.29
COc1ccc(S(=O)(=O)N2CCCc3ccccc32)cc1C(=O)O	0.15	0
CSCC(CSC)OC(=O)Nc1ccccc1	0.45	0.72
COc1nc(Oc2ccccc2C(=O)O)nc(OC)c1Cl	/	-0.33
O=C1NC(=O)N(C2CCCCC2)C(=O)/C1=C\c1ccc(-c2ccc(C(=O)O)cc2)o1	0.45	8.9
C/C(=N\N=C1/NC(=O)CS1)c1cccc2ccccc12	-0.25	/
CN(C)CCNCc1ccc(-c2ccccc2)o1	-0.5	/
CCOc1cccc(/C=N/n2c(=O)[nH]c3ccccc3c2=O)c1OC	0.8	/
O=C1CC(c2ccc(C(F)(F)F)cc2)CC(=O)N1c1ccc(I)cc1F	/	0.16
c1ccc(CNn2cnnc2)cc1	0.25	0.34
Cc1ccc(NC(=O)CSC2=NC3(CCCCC3)Nc3ccccc32)cc1	1.4	-0.4
CCCCC1(O)C(C)C(c2ccccc2)NC(c2ccccc2)C1C (stereo not given)	/	-0.43

Compound activity: PubChem, ICCB-Longwood Screening Facility, Harvard Medical School
